# Biofilm kill mix – mixture kills Candida albicans biofilm cells; C. albicans biofilm persisters + clotrimazole, fluorescence viability; primary screen in compound mixtures of four per well; AID 1242; inhibition, % at 7.6 µM; hit rate 0.02% among 120,000;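 active means inhibition above 30.3% in the primary screen of four-compound pools, then above 30% when the compound was retested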;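 further: compounds exposed to preformed 24 h biofilms for 48 h; the number belongs to the whole pool; some results filed as inactive read as strong as hits; inactives centre near 12; 0% = biofilm with clotrimazole alone and 100% = kill control; retested singly at about 60 µM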
#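 Incubation: 24 h biofilm formation, then 48 h compound exposure, 37 °C | Material: C. albicans biofilms | Buffer or medium: RPMI/MOPS medium, pH 7.0 | Measured by: 2-h Alamar Blue fluorescence, 535/590 nm excitation/emission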
# Numbers without * were called inactive. The list is partial; rates above refer to the full screens.
# Start of the listing, in advance:
SMILES,Biofilm kill mix
Cc1ccc(N(CC(=O)Nc2ccccc2C(=O)N2CCOCC2)S(C)(=O)=O)cc1,8
COc1ccc(CCNC(=O)CSCc2ccc(Cl)cc2)cc1OC,7
C=CCn1c(CCSCc2ccccc2)n[nH]c1=S,17
O=C(CSc1ccc(-c2ccccn2)nn1)NCc1ccc(F)cc1,8
COc1ccc(C2=NC(c3ccccc3)CO2)cc1 (stereo unspecified),8
CSc1ccccc1C(=O)NCCOc1cccc(C)c1,17
O=C(NC(=S)N1CCc2ccccc21)c1ccccc1Br,12

# The listing, repeating the preview:
SMILES,Biofilm kill mix
Cc1ccc(N(CC(=O)Nc2ccccc2C(=O)N2CCOCC2)S(C)(=O)=O)cc1,8
COc1ccc(CCNC(=O)CSCc2ccc(Cl)cc2)cc1OC,7
C=CCn1c(CCSCc2ccccc2)n[nH]c1=S,17
O=C(CSc1ccc(-c2ccccn2)nn1)NCc1ccc(F)cc1,8
COc1ccc(C2=NC(c3ccccc3)CO2)cc1 (stereo unspecified),8
CSc1ccccc1C(=O)NCCOc1cccc(C)c1,17
O=C(NC(=S)N1CCc2ccccc21)c1ccccc1Br,12
COc1ccc(C)cc1Nc1ccc(C(=O)O)cc1[N+](=O)[O-],10
O=C(NCc1ccccc1Cl)c1ccc2nc[nH]c2c1,8
CC(=O)c1cccc(S(=O)(=O)NC2CCCCCC2)c1,3
CCN(C(=O)COC(=O)c1ccccc1SCC(=O)NC1CCCCCCC1)C1CCS(=O)(=O)C1 (stereo unspecified),9
Cc1cc(C)c(C#N)c(SCc2nnc(-c3ccccc3)o2)n1,19
Cc1cc(/C(N)=N/OC(=O)Nc2ccc(Cl)cc2)no1,10
CCCCC(=O)Nc1nnnn1CCC,8
C=CCN1C(=O)/C(=C/C=C2/N(CC)c3ccc(S(=O)(=O)N(C)C)cc3N2CC)SC1=S,12
COc1ccc(Cc2n[nH]c(=S)n2Cc2ccccc2)cc1Cl,10
COc1cccc(N/C(=N/C(=S)Nc2ccc(C)cc2C)Nc2nc(C)cc(C)n2)c1,6
CCN(CC)c1ccc(/C=N/NC(=O)C(O)c2ccccc2)cc1 (stereo unspecified),21
O=c1[nH]c(C2CC2)nc2sc3c(c12)CCCC3,3
CN(C)Cc1ccc(F)cc1Sc1cc(Cl)ccc1Cl,7
CCOC(=O)CSc1nc(C(C)(C)C)nc2ccccc12,15
CCOC(=O)C(NC(=O)Cc1ccccc1)(Nc1cc(C)on1)C(F)(F)F (stereo unspecified),14
COc1ccc2c(c1OC)C(=O)N(c1ccc3c(c1)CCC3)C2=O,14
COc1ccc(-c2cc3ccccc3n2CC(O)CN2CCCCC2)cc1 (stereo unspecified),10
Cc1ccc(OCCn2cnc3ccccc3c2=O)c([N+](=O)[O-])c1,-2
Cc1ccc(CNC(=O)CSCc2ccc(F)cc2)cc1,14
CCC(=O)NC(=S)Nc1cccc(-c2nc3ncccc3o2)c1,13
CCN(CC)C(C)C#CCC(c1ccccc1)c1ccccc1 (stereo unspecified),10
CN(c1cccc(NC(=O)CN(c2ccc(Cl)c(Cl)c2)S(=O)(=O)c2ccccc2)c1)S(C)(=O)=O,14
COc1ccc2nc(NNC(=O)c3cc(=O)c4ccccc4o3)sc2c1,18
Cc1ccc(NNC(=O)c2ccno2)cc1C,16
COc1cc(/C=C2\SC(=S)N(CC(=O)NC3=NCCS3)C2=O)cc(OC)c1OC,-7
Cc1c(N/C=C(\Cl)C(=O)C(F)(F)F)c(=O)n(-c2ccccc2)n1C,8
Cc1cccc(N=C2NN=C(c3ccccc3F)CS2)c1C,20
Cc1ccccc1OCC(=O)N(CC(C)C)c1c(N)n(CC(C)C)c(=O)[nH]c1=O,20
Cc1c(Nc2cc(N3CCOCC3)c3nonc3c2[N+](=O)[O-])c(=O)n(-c2ccccc2)n1C,-3
O=C(CSC(=S)N1CCOCC1)Nc1nccs1,24
O=C(NN1C(=O)C2C3CCC(O3)C2C1=O)c1ccco1 (stereo unspecified),7
Cc1cc(/C=C2\SC(=S)NC2=O)c(C)[nH]1,15
CCOC(=O)c1c(-c2ccc(F)cc2)csc1NC(=O)CN1C(=O)NC2(CCCCC2C)C1=O (stereo unspecified),-5
CCNC(=S)NNc1nncc2ccccc12,6
COc1cccc(CN2CCNC(=O)C2CC(=O)NCc2cn3ccc(C)cc3n2)c1OC (stereo unspecified),16
CCOc1ccc(NC(=S)N2CCCN(Cc3cccc(Cl)c3)C2)cc1,16
COc1ccc2c(c1)oc(=O)c1cc(OC)ccc12,11
COc1ccc(-c2ccc(CCC(=O)O)n2Cc2ccco2)cc1,24
O=c1cnc(-c2ccc(Cl)cc2)cn1O,10
Cc1ccc(N2C(=S)NC3c4ccccc4OC2(C)C3C(=O)N(C)C)cc1 (stereo unspecified),5
COc1ccc(-c2c(C#N)c(N)nc3c2c(=O)n(C)c(=O)n3C)cc1,12
Cc1cc(C(=O)N/N=C/c2ccc(-c3ccccc3Cl)o2)n[nH]1,-5
O=c1ccc(-c2nc3ccccc3n2Cc2ccccc2Cl)c[nH]1,22
# Next part.
SMILES,Biofilm kill mix
CCN(C(=O)CN1CC(C)OC(C)C1)c1c(N)n(Cc2ccccc2)c(=O)[nH]c1=O (stereo unspecified),14
O=C(NCCCN1CCOCC1)Nc1ccc(Cc2ccc(NC(=O)NCCCN3CCOCC3)cc2)cc1,16
Cc1cccc(CC(=O)N2CCN=C2SCc2ccc([N+](=O)[O-])cc2)c1,10
Cc1cc(C(=O)COC(=O)c2ccc(N)cc2)c(C)n1-c1c(C)n(C)n(-c2ccccc2)c1=O,11
N#Cc1cccc(NCC(=O)Nc2ccc3c(c2)OCCO3)c1,14
CC1(C)Cc2nc(-c3ccccc3)nc(SCC(=O)N3CCCC3)c2CO1,14
O=C(CSc1nc2ccsc2c(=O)n1Cc1ccccc1)NCC1CCCO1 (stereo unspecified),18
COc1ccc(N2C(=O)C(CC(=O)Nc3ccc(F)cc3)N(CCc3cccs3)C2=O)cc1 (stereo unspecified),14
COc1ccc(/C=C2/SC(=O)N(CC(=O)Nc3cc(C)on3)C2=O)cc1OC,27
COc1ccc(-n2ncc3c(=O)n(CC(=O)Nc4ccc(S(=O)(=O)N5CCOCC5)cc4)cnc32)cc1,12

# The last 3 compounds of the section before come first, to join the parts:
SMILES,Biofilm kill mix
COc1ccc(N2C(=O)C(CC(=O)Nc3ccc(F)cc3)N(CCc3cccs3)C2=O)cc1 (stereo unspecified),14
COc1ccc(/C=C2/SC(=O)N(CC(=O)Nc3cc(C)on3)C2=O)cc1OC,27
COc1ccc(-n2ncc3c(=O)n(CC(=O)Nc4ccc(S(=O)(=O)N5CCOCC5)cc4)cnc32)cc1,12
O=C1c2ccccc2C2=Nc3ccccc3SC(c3ccc(Cl)cc3)C12 (stereo unspecified),18
Cc1cc2occ(CC(=O)OCC(=O)Nc3sc4c(c3C#N)CCC(C)C4)c2cc1C (stereo unspecified),9
Cc1ccc(NC(=O)CSc2ccc(-c3ccco3)nn2)c(C)c1,22
O=C(NCc1c(Cl)cccc1Cl)c1ccc2nnsc2c1,14
Cc1c(Cl)cccc1NC(=S)NCC(c1cccnc1)N(C)C (stereo unspecified),6
CC(C)(C)CC(=O)NCCCCCCNC(=O)CC(C)(C)C,4
CCCCN(C)S(=O)(=O)c1ccc(C(=O)Nc2nnc(-c3ccco3)o2)cc1,9
Cc1cccc(N(CC(=O)NCCSc2ccccn2)S(=O)(=O)c2ccccc2)c1,18
CN(CC(=O)Nc1ccc(Cl)c(C(F)(F)F)c1)C(=O)/C=C/c1ccco1,10
COc1cccc(C(=O)c2c(C)c(CCC#N)n3ccccc23)c1OC,-4
COc1cccc(OC)c1C(=O)NC(=S)Nc1ccc2oc(-c3ccncc3)nc2c1,1
O=C1/C(=C/c2cccs2)NC(=S)N1C1CC1,10
CC(C(=O)Nc1ccc2c(c1)OCCO2)N(C)Cc1c(F)cccc1Cl (stereo unspecified),-2
COc1cc(NC(=S)NCCO)c(OC)cc1Cl,20
COc1ccccc1CNC(=O)C(Cc1c[nH]c2ccccc12)NC(=O)OCc1ccccc1 (stereo unspecified),10
O=C(COc1ccc(Br)cc1Cl)NC(=O)NCc1ccccc1,14
Cc1ccc(NC2=C(Cl)C(=O)OC2OC(=O)c2ccc(C)cc2)cc1 (stereo unspecified),5
CCOC(=O)C1=C(CC)OC(N)=C(C#N)C1c1ccsc1 (stereo unspecified),19
CCNC(=S)Nn1cnc2ccccc21,13
Cc1ccc(S(=O)(=O)CCC(=O)OCC(=O)c2c[nH]c3ccccc23)cc1,9
COc1ccc(S(=O)(=O)NC(C)C)cc1C(=O)N1CCOCC1,14
CCCn1c(-c2nonc2N)nc2ccccc21,19
CCN(CC)C(=S)SCC(=O)Nc1nc(-c2ccccc2)c(-c2ccccc2)o1,8
Cc1cccc(N2C(=O)CCC2=O)c1,7
CCOC(=O)Cc1csc(NC(=O)/C=C\c2ccccc2Cl)n1,8
CCOc1cc(CNc2ccc(S(N)(=O)=O)cc2)cc(Cl)c1OC,6
COc1ccccc1N(C)S(=O)(=O)c1ccc(C(=O)OCC(=O)N(C)c2ccccc2)cc1,3
CC(C)(C)NCCOc1ccc2ccccc2c1,1
Cc1ccc(NC(N)=S)cc1C,12
O=C(COc1ncnc2sccc12)Nc1cccc(S(=O)(=O)N2CCCC2)c1,24
CC1=NN(c2ccccc2)C(=O)/C1=C/c1cccs1,0
CSCC[C@H](NC(=O)OC(C)(C)C)C(=O)N/N=C/c1cc2ccc(C)cc2nc1Cl,8
C=CCn1c(-c2csc3c2CCC(C)C3)n[nH]c1=S (stereo unspecified),13
COc1cc(N(C)C)c([N+](=O)[O-])cc1C(=O)N1CCN(Cc2ccccc2)CC1,16
O=C(NNC(=S)NCc1ccccc1)c1ccc(OC(F)F)cc1,18
O=C(c1cnc2sccn2c1=O)N1CCN(c2ccccc2Cl)CC1,28
CCOP(=O)(OCC)C(Nc1cccc(C(F)(F)F)c1)c1ccc(C)cc1 (stereo unspecified),8
O=c1cc(C(F)(F)F)[nH]c2c(OC(F)(F)F)cccc12,9
COc1ccccc1/C=C/C(=O)NCC(=O)N1CCC(N(C)C2CCCC2)CC1,-1
C#CCNc1cc(-c2ccccc2)nc2ncnn12,0
COC(=O)c1cnc(Oc2ccc(NC(=O)NC(=O)c3c(F)cccc3F)cc2)cc1C(F)(F)F,11
COC(=O)c1cc(NC(=O)c2cc(-c3ccc(OC)cc3)oc2C(F)(F)F)ccc1N1CCOCC1,5
Cc1c(NC(=O)C(C)OC(=O)c2cccnc2)c(=O)n(-c2ccccc2)n1C (stereo unspecified),9
Cc1ccc(OCCN2C(=O)NC3(CCc4ccccc4C3)C2=O)cc1 (stereo unspecified),11
COC(=O)c1ccccc1NC(=O)Nc1ncccc1C,6
NNC(=O)c1ccc(COc2ccc([N+](=O)[O-])cc2)o1,4
Cc1cccc(NC(=O)N2CCC(NC(=O)c3ccco3)CC2)c1,10
CCc1nnc(NC(=O)CN2CCN(c3ccccc3F)CC2)s1,-4
COC(=O)c1ccc(C(=O)OC)c(NC(=S)N2CC(C)CC(C)C2)c1 (stereo unspecified),8
CCN(CC)CCN(C(=O)c1cccc([N+](=O)[O-])c1)c1nc2ccc(OC)cc2s1,18

# Retrieved by compound from above (two):
SMILES,Biofilm kill mix
O=c1cnc(-c2ccc(Cl)cc2)cn1O,10
Cc1cc(C)c(C#N)c(SCc2nnc(-c3ccccc3)o2)n1,19

# Later entries
SMILES,Biofilm kill mix
COc1cccc(NC(=O)c2cc(Cl)nnc2Cl)c1,1
CCOC(=O)N1CCC(N2CCCC(C(=O)c3ccccc3OC)C2)CC1 (stereo unspecified),6
O=C(Cc1ccccc1)NNC1=NS(=O)(=O)c2ccccc21,15
COc1cccc(C(=O)NC2CCN(CC(=O)Nc3cccc(C)c3C)CC2)c1,20
COC(=O)c1cccc(N2C(=O)C3CC=CCC3C2=O)c1 (stereo unspecified),15
COc1ccc(-c2nn(C)c(=O)c3ccccc23)cc1CNC(=O)NC1CCCCC1,-1
CC(=O)c1cc(CC(=O)N2CCc3c([nH]c4ccccc34)C2c2ccccn2)cs1 (stereo unspecified),16
COc1ccc(C2=C(Nc3ccc(C)cc3)c3ccccc3C2=O)cc1,8
COC(=O)C1=C(C(=O)OC)[C@@H]2N(C)c3ccccc3[C@@]23C[C@@H](C(=O)OC)N(C(=O)c2ccc(Br)cc2)C3=N1,17
O=[N+]([O-])c1cc(Cl)cc(/C=N/n2cnnc2)c1O,17

# By substructure: the compounds so far with bromine
SMILES,Biofilm kill mix
O=C(NC(=S)N1CCc2ccccc21)c1ccccc1Br,12
O=C(COc1ccc(Br)cc1Cl)NC(=O)NCc1ccccc1,14
COC(=O)C1=C(C(=O)OC)[C@@H]2N(C)c3ccccc3[C@@]23C[C@@H](C(=O)OC)N(C(=O)c2ccc(Br)cc2)C3=N1,17

# Next structures follow:
SMILES,Biofilm kill mix
CC1CCN(C2CC(=O)N(c3ccccc3)C2=O)CC1 (stereo unspecified),13
Cc1cc(C)cc(NS(=O)(=O)c2ccc(NC(=S)Nc3ccccc3)cc2)c1,5
CC12CCC(C(=O)N(CSC(=S)N/N=C\c3ccccc3Cl)C1=O)C2(C)C (stereo unspecified),18
COc1cccc(CNC(=O)N[C@@H](C)C(=O)O)c1,35
O=C(c1cc2ccccc2oc1=O)N(Cc1cccs1)Cc1cccs1,8
COc1cc(OC)c(C(=O)CCCN2CCCC2)c(OC)c1,6
CN(C)C(=N)c1n[nH]nc1SCc1ccccc1,26
C=C(C)CN=C1SC(C(=O)Nc2sc3c(c2C(=O)OC)CCC3)C(N)=C1C(N)=O (stereo unspecified),9
O=C(c1ccc2c(c1)OCO2)C1CCCN(C2CCN(CCc3ccccc3)CC2)C1 (stereo unspecified),10
O=C(CN(C(=O)Cn1nnc(-c2ccc(F)cc2)n1)c1cnc2ccccc2c1)NCC1CCCO1 (stereo unspecified),26

# High-throughput results from PubChem.
